High-throughput results (PubChem BioAssay)
AID504770: E. coli YBA685 growth inhibition, screen for V. cholerae RctB inhibitors; z-score (test concentration not listed); actives 0.27% (n = 130,000); E. coli YBA685 rctB-dependent plasmid, OD600 growth, 3 h; hits give low values;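 active = z-score under -2 on both plates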;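 note: wells of about 30 µL received 100 nL stock; score is relative to mean and SD of the test wells; the first replicate is given; strong numbers were not always called active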
CapD inh: blocks the Bacillus anthracis CapD enzyme; purified CapD enzyme, fluorescence intensity read-out; hits give low values; some hits fall short of the stated cut; z-score (no concentration beside the values); actives 0.23% (n = 140,000);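 active = z-score under -4 in either of two replicates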;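 note: stock transfer was 100 nL into about 40 µL; score is relative to mean and spread of the plate; one replicate is shown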
* = called active by the depositor; nt = no result given.

Start of the listing, in advance (six entries):
Each structure is followed by: AID504770	CapD inh
- O=C(O)CC(CC(=O)Nc1ccccn1)c1ccccc1 (centres undefined)
→ -0.75	nt
- CCC1CCCCN1C(=O)CSc1cnc2ccccc2n1 (centres undefined)
→ 0.8	nt
- COc1cccc(OC)c1C(C)(O)C(OC)OC (centres undefined)
→ nt	0.11
- CN=C1SC(CC(=O)NC(N)=O)C(=O)N1C (centres undefined)
→ -0.8	nt
- CN(C(=S)S)C1CCS(=O)(=O)C1 (centres undefined)
→ -0.1	nt
- CC1CCCCN1S(=O)(=O)c1ccc2c(c1)oc(=O)n2CC(=O)NC1CCCCCCC1 (centres undefined)
→ 0.25	-0.32

The whole of this part (from the top)
Each structure is followed by: AID504770	CapD inh
- O=C(O)CC(CC(=O)Nc1ccccn1)c1ccccc1 (centres undefined)
→ -0.75	nt
- CCC1CCCCN1C(=O)CSc1cnc2ccccc2n1 (centres undefined)
→ 0.8	nt
- COc1cccc(OC)c1C(C)(O)C(OC)OC (centres undefined)
→ nt	0.11
- CN=C1SC(CC(=O)NC(N)=O)C(=O)N1C (centres undefined)
→ -0.8	nt
- CN(C(=S)S)C1CCS(=O)(=O)C1 (centres undefined)
→ -0.1	nt
- CC1CCCCN1S(=O)(=O)c1ccc2c(c1)oc(=O)n2CC(=O)NC1CCCCCCC1 (centres undefined)
→ 0.25	-0.32
- O=C(Nc1cccc(-c2nc3ncccc3o2)c1)c1sc2ccccc2c1Cl
→ nt	0.24
- Brc1cccc(OCCSc2ncccn2)c1
→ 0.3	0.57
- O=C1N(CN2CCCCC2)c2ccccc2C12OCCCCO2
→ -0.4	nt
- Fc1cc(Br)ccc1N=Cc1ccco1
→ -0.3	nt
- COC(=O)Cc1c(C(=O)OC)sc(-n2c(C)ccc2C)c1C(=O)OC
→ nt	-0.65
- Cc1cc(N2C(=O)NC(=O)/C(=C/c3ccc(O)cc3)C2=O)ccc1Br
→ nt	-1.4
- CN(C(=O)c1ccco1)c1ccccc1C(=O)NCCc1ccccc1
→ 2.5	0.33
- CCOc1ccccc1C=Nc1ccc(Br)cc1
→ -0.5	14
- S=C(c1nc2ccccc2[nH]1)N1CCOCC1
→ -0.45	-0.095
- O=C1c2ccccc2-c2c(Nc3ccccc3)c(=O)[nH]c3cccc1c23
→ nt	-0.14
- CC1=CCC2C(=O)N(CCc3c[nH]c4ccccc34)C(=O)C2C1 (centres undefined)
→ 0.1	1.9
- COc1ccc(COC(=O)C2=C(C)NC3=C(C(=O)CCC3)C2c2cc(Br)c(O)c(OC)c2)cc1 (centres undefined)
→ nt	12
- O=S(=O)(NN1CCOCC1)c1ccc(Br)cc1
→ -1.4	-0.015
- CCOC(=O)C1=C(C)NC2=C(C(=O)CC(C)(C)C2)C1c1ccc(OC)cc1 (centres undefined)
→ nt	6.8
- CC1(C)C(=O)Nc2ccccc2N1C(=O)COC(=O)c1cc(S(=O)(=O)N2CCOCC2)ccc1F
→ 0.9	nt
- Cc1nc(-c2ccc(Cl)cc2)sc1C(=O)/C=C/N(C)C
→ 0.05	-1.3
- O=C1/C(=C/c2ccncc2)CC/C1=C\c1ccncc1
→ -1	-0.56
- CCOC(=O)C12CCCC(CCC1)C(=O)O2
→ nt	-0.39
- O=C(O)CCCC(=O)Nc1ccccn1
→ 2	0.08
- Cc1ccc(S(=O)(=O)NN2C(=O)c3ccccc3NC23CCCC3)cc1
→ 1.5	63
- CCc1nn(CC(=O)Nc2cc(Cl)c(OC)cc2OC)c(=O)c2cc3sccc3n12
→ -0.35	-0.61
- COc1ccccc1CNS(=O)(=O)c1cccc2nonc12
→ nt	-0.92
- O=C(OCc1ccc(-c2cc(C(F)(F)F)cc(C(F)(F)F)c2)o1)c1ccc2c(c1)CCO2
→ -0.85	0.65
- OCCNc1nc2nonc2nc1Nc1ccccc1
→ nt	-1.6
- O=S(=O)(c1cc(Br)c(Cl)s1)N1CCc2c([nH]c3ccccc23)C1
→ nt	0.73
- CCn1c(CN(C)CCOc2ccc(OC)cc2)nc2cc(S(=O)(=O)N(C)C)ccc21
→ 0.1	nt
- CC(C)CN(CC(C)C)CC(O)Cn1cnc2c1c(=O)n(C)c(=O)n2C (centres undefined)
→ 1	0.67
- O=S(=O)(Nc1ccc(O)cc1)c1ccc2ccccc2c1
→ -0.65	-0.03
- COc1ccc(-c2cc(C(F)(F)F)n3nccc3n2)cc1
→ 1.1	30
- CCOC(=O)/C=C1\SCC(=O)N1CCSc1nc(C)cs1
→ 0.85	nt
- COc1ccccc1CCN(Cc1ccco1)Cc1ccco1
→ 0.05	nt
- Cc1sc2c(c1C)C1=NS(=O)(=O)CCN1C=N2
→ 0.35	nt
- CCN1C(=O)N(CC)C2NC(=S)NNC21 (centres undefined)
→ -0.8	nt
- CN(C)c1ccc(C2(O)C(=O)c3ccccc3C2=O)cc1
→ -0.15	-0.63
- C/C(=C(/CCO)SSCC1CCCO1)N(C=O)Cc1cnc(C)nc1N (centres undefined)
→ nt	-0.68
- O=C(CNS(=O)(=O)c1cccc(C(F)(F)F)c1)NC1CCCCCC1
→ 0.9	nt
- C=C(C)C1CCC(C)=C1COC(=O)c1ccccc1 (centres undefined)
→ 0.45	nt
- Cc1ccc2onc(CNC(=O)N3CCc4ccccc43)c2c1
→ -0.65	0.1
- Nc1nc(CN2CCCCC2)cs1
→ -0.75	nt
- O=S(=O)(c1ccccc1)N1CCCC(c2nc(-c3cccs3)no2)C1 (centres undefined)
→ -0.4	nt
- CCOC(=O)c1cncc(C#CCOC(=O)Nc2ccccc2)c1
→ 0.75	0.02
- COc1ccccc1OCC(=O)Nc1ccc(S(=O)(=O)N2CCN(C)CC2)cc1
→ 0.35	nt
- CC(=O)NC12CC3CC(C)(C1)CC(NC(C)=O)(C3)C2
→ -1	-0.085
- Cc1ccn2cc(CSc3ccccc3N)nc2c1
→ -0.55	0.41
- CC(=O)NC1CCCCc2sccc21 (centres undefined)
→ -1	0.045
- O=C1CN=C(c2ccc(F)cc2)c2oc3ccccc3c2N1
→ nt	-0.46
- COc1cc(C(=O)Nc2nsc(-c3ccccc3)n2)cc(OC)c1OC
→ 0.25	0.38
- O=C(O)c1ccc(Br)c(C(=O)O)c1
→ -0.5	-0.28
- O=C(c1ccc(Cl)cc1)n1cc2c(n1)-c1cc(F)ccc1SC2
→ nt	-0.28
- O=S1(=O)CCC(S(=O)(=O)NCc2ccco2)C1 (centres undefined)
→ 0.95	-1.2
- Cc1cc(CC(=O)NN)n[nH]1
→ -0.85	nt
- CCN1CCN(c2cc(C)c3cc(NC(=S)NC4CCCC4)ccc3n2)CC1
→ -1.2	8.9
- CSc1nnc(C(C)(C)C)c(=O)n1N
→ -0.65	-0.64
- CN1CCC(N(C)C(=O)Nc2c[nH]c3ccccc23)CC1
→ -0.1	nt

More records follow:
Each structure is followed by: AID504770	CapD inh
- CCN1CCN(c2nc(C)c3c(n2)CC(c2ccco2)CC3=O)CC1 (centres undefined)
→ -0.5	nt
- NC(=O)C1CC1(Cl)Cl (centres undefined)
→ nt	-0.16
- Cc1nn(Cc2cccc(C(N)=O)c2)c(C)c1Br
→ 0.05	-0.18
- CCn1c(CCC(=O)NC(C#N)c2ccc(F)cc2)nc2cc(S(=O)(=O)N(C)C)ccc21 (centres undefined)
→ -0.8	nt
- CSc1cccc(Nc2cc(C(=O)NCCN3CCOCC3)c3ccccc3n2)c1
→ -0.4	-0.29
- Cc1nccn1CCc1nc(N)nc(N)n1
→ -0.1	0.25
- Cc1cc(C)c2[nH]c(=O)c(CN(CCN3CCOCC3)C(=O)Nc3ccc(F)cc3)cc2c1
→ -0.35	nt
- COc1ccc2c(c1OC)C(=O)OC2C1c2cc3c(cc2CCN1C)OCO3 (centres undefined)
→ 0.15	nt
- CCOc1ccc(C(=O)NCCO)cc1
→ -1.4	-0.04
- CCN(c1cccc(C)c1)S(=O)(=O)c1ccc2c(c1)N(C)CCO2
→ -0.1	0.53
- COc1ccccc1-c1cc(-c2ccccc2)nc(SCC(N)=O)c1C#N
→ nt	12
- CCOC(=O)C1CCCN(CC(O)COc2cccc(C)c2)C1 (centres undefined)
→ 0.5	-0.11
- Cc1ccc(/C(C#N)=C/c2ccc(N(C)C)cc2)cc1
→ 2.7	-2.6
- Nc1ccc(-c2nc3ccc(-c4nc5ccccc5o4)cc3[nH]2)cc1
→ -0.1	53
- CCOc1cc(C2Nc3ccc4ccccc4c3C3=C2C(=O)CC(C)(C)C3)cc(Br)c1OC (centres undefined)
→ nt	3
- COC(=O)C1=C(C)NC2=C(C(=O)CCC2)C1c1ccc(OC)c(COc2c(F)c(F)c(F)c(F)c2F)c1 (centres undefined)
→ nt	23
- COc1ccc(NC(=O)N2CCC(c3nc4ccccc4[nH]3)CC2)cc1
→ -0.65	nt
- CN(C)P(=NC(=S)Nc1ccccc1)(N(C)C)N(C)C
→ 0	nt
- COc1cc([N+](=O)[O-])ccc1N=Cc1nc(-c2cc(OC)c(OC)c(OC)c2)oc1O
→ nt	-0.14
- c1ccc(Cn2c[n+](Cc3ccccc3)cn2)cc1
→ -1	-0.06

3 compounds already listed, ordered by formula weight, ascending.
Each structure is followed by: AID504770	CapD inh
- CN(C)P(=NC(=S)Nc1ccccc1)(N(C)C)N(C)C
→ 0	nt
- CCN(c1cccc(C)c1)S(=O)(=O)c1ccc2c(c1)N(C)CCO2
→ -0.1	0.53
- CCn1c(CCC(=O)NC(C#N)c2ccc(F)cc2)nc2cc(S(=O)(=O)N(C)C)ccc21 (centres undefined)
→ -0.8	nt

More structures follow:
Each structure is followed by: AID504770	CapD inh
- CCOc1ccc(C(=O)Nc2cc(OC)c(OC)cc2C(=O)OC)cc1
→ -1.1	4.2
- CCOC(=O)c1sc(N2C(=O)C(=O)/C(=C(/O)c3ccc(OC)c(C)c3)C2c2ccccc2)nc1C (centres undefined)
→ -0.2	-1.4
- N#Cc1cccc(NC(=O)C(F)(F)F)c1
→ -0.5	0.43
- COc1cc(/C=C2\N=C(c3ccccc3)N(c3ccc(Br)c(C)c3)C2=O)cc(OC)c1OC
→ nt	-0.18
- CC(=O)Nc1ccc(NC(=O)C(C)OC(=O)C2(c3ccc(F)cc3)CCCC2)cc1 (centres undefined)
→ 0.4	0.27
- Cn1c(=O)c2c(nc(SCc3cc4c(cc3Cl)OCO4)n2C)n(C)c1=O
→ nt	-0.22
- CN(/C=C/C(=O)C(F)(F)F)c1ccccc1C(=O)O
→ 0.15	nt
- O=c1cc(CSc2ccc(Cl)cc2)nc(N2CCN(Cc3ccc4c(c3)OCO4)CC2)[nH]1
→ -0.2	0.32
- O=C(O)C1CCCCN1Cc1cccc(F)c1 (centres undefined)
→ -0.05	nt
- Cc1ccc(C2C3=C(CC(C)(C)CC3=O)OC3=C2C(=O)CC(C)(C)C3)cc1
→ -0.7	-0.13
- Nc1c(C(=O)CCC(=O)O)oc2ccc(Cl)cc12
→ nt	11
- CC(=O)O/N=C(\N)COc1ccc(-c2nnco2)cc1
→ -0.7	0.94
- CN(C)S(=O)(=O)c1cc(C(=O)N2CCN(Cc3ccccc3)CC2)c(Cl)cc1Cl
→ 0.25	-0.23
- CC(CN1CCCN(C)CC1)c1ccccc1 (centres undefined)
→ -0.8	-0.01
- COc1ccccc1Nc1nc(N)nc(CN2CCC(C)CC2)n1
→ 0.25	-0.4
- O=C(O)CSc1nnc(NC2CCCCC2)s1
→ -0.55	nt
- CCc1cc2c(=O)c(-c3ccc4c(c3)OCO4)c(C)oc2cc1OC1OC(CO)C(O)C(O)C1O (centres undefined)
→ nt	0.52
- O=C1N=C2N(CCN3CCOCC3)c3ccccc3N2/C1=C\c1ccc([N+](=O)[O-])s1
→ nt	-0.29
- CC(C)NC(=O)NC(C)C
→ -2.2	nt
- Cc1ccc(F)cc1S(=O)(=O)NCC(C)(C)CN(C)C
→ nt	-0.68
- O=c1[nH]c2ccccc2cc1CO
→ -0.25	17
- O=C(O)c1cc2c(o1)CCC/C2=N/O
→ 0.35	-0.39
- COC(=O)c1cc(S(=O)(=O)N2CCc3ccccc3C2)c[nH]1
→ -1.7	-0.31
- CCc1ccc(C2C(C(=O)Nc3ccccc3C)=C(C)NC3=C2C(=O)CCC3)cc1 (centres undefined)
→ 0.85	70
- Cc1cc2nc(Cc3cc4c(cc3Br)OCO4)c(=O)[nH]c2cc1C
→ nt	0.53
- CC(C)CN(CC(C)C)C(=O)c1cc(-c2ccccc2)n[nH]1
→ -0.05	-0.1
- CC1CCCCN1C(=O)c1oc(=O)c2ccccc2c1-c1ccccc1 (centres undefined)
→ -1.3	-0.41
- CCOc1cc(C2C(C(=O)OC)=CN(Cc3ccc(OC)c(OC)c3)C=C2C(=O)OC)cc([N+](=O)[O-])c1O
→ nt	-0.24
- COc1ccccc1C1=NN(C(=O)CCC(=O)O)C(c2ccccc2Cl)C1 (centres undefined)
→ nt	0.89
- N#Cc1c(NC(=O)/C=C\C(=O)O)sc2c1CCCC2
→ 0.35	nt
- c1cc(-c2ncc(-c3ccncn3)c(-c3ccncc3)n2)ccn1
→ nt	0.045
- O=C(Nc1ncn[nH]1)c1ccc(Cl)cc1Cl
→ -0.15	nt
- N#C/C(C(N)=O)=C1/C(=O)Nc2ccc(Br)cc21
→ -0.25	4.2
- CSc1c(C#N)c(-c2cccs2)nn1C
→ nt	0.11
- COC(=O)c1ccc2c(=O)[nH]c(COC(=O)c3ccc4c(c3)OCCO4)nc2c1
→ -0.1	nt
- N#CCSc1nc2[nH]ncc2c(=O)n1-c1ccccc1Br
→ 1.9	0.56
- CN1c2ccccc2C(O)=C(C(=O)Nc2ccc(OC(F)(F)F)cc2)S1(=O)=O
→ nt	-0.36
- CCCn1cnc2c(oc3ccccc32)c1=O
→ 1.4	-1.1
- CC1=CC=CC2=NC(=O)CC(C)(C(=O)O)N12 (centres undefined)
→ -2.1	89
- CC(C)N(CC(N)=O)c1ncnc2sc3c(c12)CCC3
→ 1.9	nt
- NS(=O)(=O)/C=C/c1ccc(Cl)cc1
→ -1.1	nt
- O=C(c1n[nH]c(=O)c2ccccc12)N1CCN(C2c3ccccc3-c3ccccc32)CC1
→ -0.4	nt

A portion of the library, so the mix of outcomes need not match the whole.
